# Screening results from PubChem BioAssay.
# KCNQ2 enhance: KCNQ2 (rat) channel potentiation; CHO-K1 KCNQ2, FluxOR thallium flux fluorescence; stronger effect = higher value; O88943; B-score at 10 µM; actives 0.54% (n = 310,000); AID 2239;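 active = fluorescence ratio B-score at least 3 SD of library B-scores, with initial fluorescence B-score within 3 SD, cut at about 5.3 in these data; same plate scores as AID 2156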;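 also: B-score of peak minus minimum over baseline fluorescence ratio after K+ and Tl+ stimulus; positive B-score means potentiation of KCNQ2 with more thallium influx and brighter signal; only the inactives scoring about 0 or higher are listed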
# Target sequence (O88943 whole entry, looked up): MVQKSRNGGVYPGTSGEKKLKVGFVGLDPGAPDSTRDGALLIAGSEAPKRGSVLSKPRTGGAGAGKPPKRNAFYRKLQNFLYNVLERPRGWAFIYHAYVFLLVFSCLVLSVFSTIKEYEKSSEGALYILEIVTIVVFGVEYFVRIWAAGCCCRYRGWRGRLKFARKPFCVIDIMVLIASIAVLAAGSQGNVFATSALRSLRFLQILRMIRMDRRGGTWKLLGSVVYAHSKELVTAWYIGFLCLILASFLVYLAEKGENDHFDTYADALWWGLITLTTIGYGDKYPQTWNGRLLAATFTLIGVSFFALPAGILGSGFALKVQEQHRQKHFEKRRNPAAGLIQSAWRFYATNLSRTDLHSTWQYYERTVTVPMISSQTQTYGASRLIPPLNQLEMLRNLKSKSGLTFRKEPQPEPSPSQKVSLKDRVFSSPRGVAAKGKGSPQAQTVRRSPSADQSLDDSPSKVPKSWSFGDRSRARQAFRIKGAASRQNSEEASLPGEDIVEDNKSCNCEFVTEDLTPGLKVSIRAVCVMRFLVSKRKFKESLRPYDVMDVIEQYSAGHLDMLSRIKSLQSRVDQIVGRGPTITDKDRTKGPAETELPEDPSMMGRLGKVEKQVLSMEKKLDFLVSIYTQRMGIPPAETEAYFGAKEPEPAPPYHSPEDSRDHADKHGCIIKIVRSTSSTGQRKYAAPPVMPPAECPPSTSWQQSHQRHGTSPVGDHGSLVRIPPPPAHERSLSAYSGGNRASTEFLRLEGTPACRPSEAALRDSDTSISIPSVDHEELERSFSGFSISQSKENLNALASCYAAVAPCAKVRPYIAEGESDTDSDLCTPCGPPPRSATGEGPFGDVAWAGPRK
# KCNQ2 enhance baseline: recorded beside KCNQ2 enhance, whose call it bears; B-score; compound at 10 µM; measured here: initial fluorescence intensity artifact check;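 brightness before thallium and not channel activity; 0 = typical well and far values either way flag optical interference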
# Numbers without * were called inactive. Only part of the results is shown. The share of hits here may be higher or lower than overall.
Structure	KCNQ2 enhance	KCNQ2 enhance baseline
COC(=O)C1=C(N)N(c2ccc(F)cc2)C2=C(C(=O)CCC2)C1c1ccc2c(c1)OCO2 (stereo unspecified)	0.01	-0.36
O=C(Cn1nnc(-c2ccc(N3CCOCC3)cc2)n1)N1CCOCC1	2	-0.05
COc1cc(C)c(NC(=S)Nc2cccc(Cl)c2C)cc1OC	1.4	0.17
COc1ccc(CN2CCc3c([nH]c4ccccc34)C2)c(OC)c1C	1.8	1.1
COc1cccc(NS(=O)(=O)c2ccc3c(c2)n(C)c(=O)c(=O)n3C)c1	0.78	-0.01
CCOc1ccc(C2C(C(N)=O)=C(C)Nc3ncnn32)cc1OC (stereo unspecified)	0.27	-0.11
O=C(CCC(=O)N1CCOc2ccccc21)Nc1ccccc1Cl	1.6	-2.3
O=C(O)CC(Cc1ccc(Cl)cc1)C(=O)NCc1ccccc1 (stereo unspecified)	0.31	0
COC(=O)c1ccc(Nc2cc(C)nc(-c3ccccc3O)n2)cc1	2	-2
CS(=O)(=O)N1CCN(C(=O)Cc2ccc([N+](=O)[O-])cc2)CC1	1.1	-1.4
CCOC(=O)C1CCN(C(=O)CSc2cc(=O)n(CC)c3ccccc23)CC1	0.46	-1.6
CC1CCCC(NC(=O)C2CCN(S(=O)(=O)N3CCC4(CC3)OCCO4)CC2)C1C (stereo unspecified)	0.29	-1.3
CN(C)S(=O)(=O)c1cccc(NC(=O)c2cc(=O)[nH]c3ccccc23)c1	1.1	0.15
CCc1sc(C(=O)NC)cc1Br	0.01	0.37
Cc1ccc(S(=O)(=O)NNC(=O)c2sc(NS(=O)(=O)c3ccccc3)nc2C)cc1	0.06	-1.6

# Looked up by compound from the entries so far:
Structure	KCNQ2 enhance	KCNQ2 enhance baseline
O=C(O)CC(Cc1ccc(Cl)cc1)C(=O)NCc1ccccc1 (stereo unspecified)	0.31	0
O=C(Cn1nnc(-c2ccc(N3CCOCC3)cc2)n1)N1CCOCC1	2	-0.05

# Additional results
Structure	KCNQ2 enhance	KCNQ2 enhance baseline
CCc1sc(C(=O)Nc2nc(C)cs2)cc1C	0.94	-0.18
Cc1ccc2[nH]c(=O)c(C(c3nnnn3Cc3ccccc3)N3CCc4ccccc43)cc2c1 (stereo unspecified)	0.86	0.45
COc1cc(C=O)ccc1OC(=O)c1ccncc1	0.49	1.4
Cc1coc2c1c(C)cc1oc(=O)c(CC(=O)NCC(=O)N[C@H](C(=O)O)C(C)C)c(C)c12	0.08	-0.57
CCOC(=O)c1ccc(NC(=O)NC(C)C2CCCO2)cc1 (stereo unspecified)	1.5	-1.9
Cn1c(=O)n(C)c2cc([N+](=O)[O-])c(N3CCN(C(=O)c4ccc(Cl)cc4)CC3)cc21	0.01	-0.95
O=S(=O)(c1ccccc1)N1CCN(S(=O)(=O)N2CCCCC2)CC1	0.03	0.82
O=C(O)c1ccccc1C(=O)NNc1ccc(Cl)cc1	1.2	-1.7
CC(=O)c1ccccc1OC(=O)c1c(F)cccc1F	2	0.04
Cc1ccc(N2C(=O)C3C(c4ccccc4)N4CCCN4C3(C)C2=O)cc1 (stereo unspecified)	1.8	-2
O=C(/C=C/c1ccc2c(c1)OCO2)NCc1ccncc1	0.05	0.04
Cc1nc(SCC(=O)Nc2cc(C)on2)c2c(=O)n(C)c(=O)n(C)c2n1	1	0.08
CC(=O)c1c(NCc2ccccc2)nc(=O)n(-c2ccccc2)c1C	0.83	0.1
COc1cccc(NC(=O)COC(=O)Cc2ccc(Cl)cc2)c1	0.88	4.1
CSc1ncc(Cl)c(C(=O)Nc2cc(C)ccc2C)n1	0.51	0.65
Cc1cc(NC(=O)c2ccccc2F)on1	0.08	0.75
CCOC(=O)c1cnn(-c2cccc(Cl)c2)c1N	0.44	-2.6
CCCc1c(O)nc(SCCN(CCC)CCC)[nH]c1=O	0.01	0.01
C#CCOCCOCCOCCNc1nc(N2CCN(C(=O)[C@H](Cc3cc4ccccc4[nH]3)n3cc([C@@H](N)C(C)CC)nn3)CC2)nc(N2CCN(C(=O)[C@H](Cc3cc4ccccc4[nH]3)n3cc([C@@H](N)CC(C)C)nn3)CC2)n1 (stereo partly specified)	0.33	0.36
CCCCOCCCNC(=O)c1ccc2c(c1)OCO2	6.5*	2.1*
Cc1ccc(Cn2c(SCC(=O)N/N=C/c3ccccc3OCC(=O)O)nc3ccccc32)cc1	0.25	0.49
Cc1nc2ccccn2c1C(=O)N/N=C/c1ccc2c(c1)OCO2	0.98	-0.52
CN1C(=O)C(C)(C)c2cc(S(=O)(=O)N3CCC(C(=O)NCc4ccccc4Cl)CC3)ccc21	0.12	-1.2
O=C(O)c1cccc2c1C(=O)c1cccc3snc-2c13	0.22	0.54
O=C1CCNc2cc3ccccc3cc21	0.29	-1.9
COc1ccc(N(CC(=O)NCC2CCCO2)C(=O)CCC(=O)Nc2nccs2)c(OC)c1 (stereo unspecified)	0.45	0.26
CCOCCc1nnc(NC(=O)C2CCN(C(=O)c3ccco3)CC2)s1	0.17	2.2
COc1cccc(C(=O)Cn2c(N3CCOCC3)nc3c2c(=O)n(C)c(=O)n3C)c1	0.14	1.7
COC(=O)Cn1nc(-c2ccc(C)c(S(=O)(=O)N(C)C)c2)c2ccccc2c1=O	0.68	1.1
COc1ccc(S(=O)(=O)N2CCC3(CC2)CC(=O)c2ccccc2O3)cc1C	1.2	-0.26
Cc1ccc(SCCSc2nc(C)cc(=O)[nH]2)cc1	1.6	1.3
CCNC(=O)C1Cc2ccccc2CN1S(=O)(=O)c1ccc(F)cc1 (stereo unspecified)	0.11	0.36
CC(C)C(NC(=O)COc1ccccc1)C(=O)O (stereo unspecified)	0.03	-0.67
COC(=O)c1ccccc1Oc1ccc(NC(=O)C(C)(C)CCl)cc1	1.2	-0.75
O=C(CSc1ccc2c(c1)OCCO2)Nc1ncc(Cl)cc1Cl	1.4	0
COc1cccc(CNC(=O)CCCn2ncn3c(cc4occc43)c2=O)c1	1.6	0.48
Cc1ccc(C(=O)Nc2ccc3c(c2)nc2n3CCSC2)cc1	2.2	-0.54
COc1ccc(-c2oc3ccc(-c4ccc(OC)nc4)cc3c2-c2ccc(OC)cc2)cc1	0.02	0.5
Oc1ccc(/C=N/Nc2ncc(Cl)cc2Cl)cc1	0.01	-0.11
Clc1ccc2c(NCc3ccccn3)ncnc2c1	0.09	0.26
O=C(c1ccc(F)cc1)N1CCN(C(=O)c2ccc([N+](=O)[O-])cc2)CC1	1.2	-0.01
Nc1ccc(CSc2ccc(Cl)cc2)cc1	0.64	-0.02
FC(F)(F)c1cccc(-c2nc(-c3ccncc3)no2)c1	0.02	0.09
CC[n+]1c(/C=C/Nc2ccccc2)sc2ccccc21	0.92	0.53
CN(C(=O)c1ccc(Cl)c([N+](=O)[O-])c1)C1(C)CCS(=O)(=O)C1 (stereo unspecified)	0.75	0.33
O=S1(=O)CCC(n2ncc3c2/C(=C/c2ccccc2)CC3)C1 (stereo unspecified)	0.49	0.41
CC(CCc1ccccc1)NC(=O)CCCn1ncn2c(cc3occc32)c1=O (stereo unspecified)	1.1	0.9
COc1ccc(S(=O)(=O)N2CCCC(C(=O)NCC3CCCO3)C2)cc1C (stereo unspecified)	0.15	0.07
CC(C)C[C@H](NC(=O)Nc1ccc(S(N)(=O)=O)cc1)C(=O)O	0.52	-0.15
CCOC(=O)CC(=O)CSc1nc2c(C)c(C)ccc2cc1C	0.23	0.05
CCOC(=O)c1[nH]c2ccc(OC)cc2c1NC(=S)N1CCN(c2ccc(F)cc2)CC1	0.13	-0.03
CC(C)C(OC(=O)c1nsc(Cl)c1Cl)C(=O)NC1CCCCC1 (stereo unspecified)	0.45	-1.2
COC(=O)c1c(C(=O)OC)c(-c2ccc(F)cc2)n2c1CS(=O)(=O)C2	0.15	-0.02
COc1ccc(NC(=O)Nc2cnccn2)cc1	1.4	-0.4
CN(C)S(=O)(=O)c1ccc(C(=O)NCC2(N3CCCCC3)CCCCC2)cc1	1.2	0.72
CCCC/C(O)=C1\C(=O)CC(C)(C)CC1=Nc1ccc(N)cc1	1.2	0
CN(Cc1nc(-c2ccccc2)no1)C1CCOCC1	1.5	1.8
COc1cccc(CN2CCN(C3CSCCSC3)CC2CCO)c1 (stereo unspecified)	0.28	1
CCOC(=O)C1CCN(CC(=O)N2C(C)CCCC2C)CC1 (stereo unspecified)	0.28	-0.37
COc1cc(/C=N/NC(=O)c2ccc3nc[nH]c3c2)cc(OC)c1OC	0.19	-0.84

# Grouped by structure, the compounds so far containing a nitro group on carbon
Structure	KCNQ2 enhance	KCNQ2 enhance baseline
CS(=O)(=O)N1CCN(C(=O)Cc2ccc([N+](=O)[O-])cc2)CC1	1.1	-1.4
Cn1c(=O)n(C)c2cc([N+](=O)[O-])c(N3CCN(C(=O)c4ccc(Cl)cc4)CC3)cc21	0.01	-0.95
O=C(c1ccc(F)cc1)N1CCN(C(=O)c2ccc([N+](=O)[O-])cc2)CC1	1.2	-0.01
CN(C(=O)c1ccc(Cl)c([N+](=O)[O-])c1)C1(C)CCS(=O)(=O)C1 (stereo unspecified)	0.75	0.33

# The list continues:
Structure	KCNQ2 enhance	KCNQ2 enhance baseline
O=C(CSc1nnc(-c2cccnc2)n1C1CCCCC1)NC1CCCCC1	1.3	1.4
O=C(NCC1CCCO1)C1CCN(C(=O)c2ccc(Br)cc2)CC1 (stereo unspecified)	1.6	0.2
COc1cc(C(=O)N2CCN(CCCc3ccccc3)CC2)cc(OC)c1OC	0.02	-0.65
CC1=NN(C(=O)c2ccccc2F)C(O)(c2ccc(Cl)cc2)C1 (stereo unspecified)	2.8	-0.45
Cc1[nH]n(-c2ccccc2)c(=O)c1C=NCc1ccco1	1.8	-0.97
CCOc1ccc(N2C(=O)S/C(=C\c3ccc(O)c(OCC)c3)C2=O)cc1	0.91	-0.34
COc1ccc(NC(=O)CN(C)C(=O)CCCc2c[nH]c3ccccc23)cc1	1	1.4
Cc1ccccc1NC(=O)c1ccc(CN2CCC(Cc3ccccc3)CC2)cc1	0.78	-1.2
COc1ccc(OC)c(C(C)NC(=O)c2ccco2)c1 (stereo unspecified)	0.23	0.16
COCCN(C(=O)COC(=O)c1ccc(Cl)s1)c1c(N)n(Cc2ccccc2)c(=O)[nH]c1=O	1.6	1.1
Cc1cc(NC(=O)C2CC(=O)N(c3ccccc3)C2)no1 (stereo unspecified)	0.8	1.3
O=C(Nc1ccccc1SCC1CSc2nc3ccccc3c(=O)n21)c1ccccc1 (stereo unspecified)	0.74	1.1
CNC(=O)c1ccccc1Sc1cccc2cccc(C(=O)O)c12	0.81	-1.1
COc1ccc(CCn2c(NCCCN3CCOCC3)nc3c2c(=O)[nH]c(=O)n3C)cc1	0.05	-0.62
Cc1cccn2c(=O)c(C(=O)NC3CCCCC3)c(O)nc12	1.4	0.04
COCCN(C(=O)c1ccccc1OC1CCN(S(C)(=O)=O)CC1)C(C)C	0.31	-0.83
Cc1cc(C)c2nc(N3CCC(C(=O)NCCN4CCOCC4)CC3)sc2c1	0.46	-1.9
Cc1cc(N2C(=O)c3ccc(C(=O)Nc4ccc(CC(=O)O)cc4)cc3C2=O)no1	1.1	-0.07
COc1nc(-c2ccccc2)ccc1-c1noc(-c2cccs2)n1	0.01	-0.22
Cc1cc(=O)oc2cc(NC(=O)C(C)Oc3cccc(Cl)c3)ccc12 (stereo unspecified)	1.7	1.3
Cc1cnc(C(=O)OCC(=O)NCc2ccc3c(c2)OCO3)cn1	1.1	0.39
O=C(O)CN=C(NS(=O)(=O)c1ccccc1)c1ccccc1	0.63	-0.17
Cc1ccc(CCNC(=O)CN(c2cc(C)cc(C)c2)S(=O)(=O)c2c(C)noc2C)cc1	1.8	-0.09
CCN(CCO)C(=S)Nc1cc(C(=O)OC)ccc1C(=O)OC	0.13	0
CC1CC(C)CN(CCCNC(=O)c2ccc(CS(=O)(=O)Cc3cccc(Cl)c3)o2)C1 (stereo unspecified)	0.52	0.12
Cc1cccc(/C(N)=N/OC(=O)Cc2ccccc2)c1	3	0.87
Cc1cccn2c(=O)c3cc(C(=O)NC4CCCC4)c(=N)n(Cc4ccc(F)cc4)c3nc12	0.53	-0.11
Cc1cc(=O)[nH]c(SCC(=O)Nc2ccc(Br)cn2)n1	1.6	0.67
Cc1cccn2c(=O)c3cc(C(=O)NC(C)C)c(=N)n(Cc4ccncc4)c3nc12	0.07	0.41
CCOC(=O)CN1CC23C=CC(O2)C(C(=O)Nc2ccc(C(C)=O)cc2)C3C1=O (stereo unspecified)	2.9	-2.9

# For convenience, part of the list above:
Structure	KCNQ2 enhance	KCNQ2 enhance baseline
Cc1ccc(CCNC(=O)CN(c2cc(C)cc(C)c2)S(=O)(=O)c2c(C)noc2C)cc1	1.8	-0.09
CCN(CCO)C(=S)Nc1cc(C(=O)OC)ccc1C(=O)OC	0.13	0

# (list continues)
Structure	KCNQ2 enhance	KCNQ2 enhance baseline
Cn1c(=O)n(CC(N)=O)c(=O)c2c1nc(Br)n2Cc1ccccc1	0.07	0.18
O=C(CSc1nc2[nH]ncc2c(=O)[nH]1)Nc1ccc(Cl)cc1	0.52	1.3
COc1cc(C(=O)N2CCc3ccccc32)ccc1OCc1c(C)noc1C	1.4	0.81
COc1ccc2c(c1)CC(=O)NC=C2	1.1	2.9
COc1ccc(NC(=O)C2CCN(C(=O)NC3CCCCC3)CC2)c(OC)c1	0.87	0.17
COCCCNCCCCOc1ccc(OCc2ccccc2)cc1	0.41	-0.29
S=C(NCc1ccco1)Nc1cccc(Cl)c1	2	1.6
COC(=O)COc1ccc2cc(-c3ccc(OC)cc3)c(=O)oc2c1	0.43	-0.76
Nc1nonc1-n1nnc(C(=O)N/N=C/c2cccc(Cl)c2)c1CN1CCCCCC1	1.2	0.16
Cc1cc(C(F)(F)F)n2nc(C(=O)O)c(Cl)c2n1	0.36	-0.57
